Screening results (PubChem BioAssay)
Insulin prom inh – TRM-6 insulin promoter activity inhibition; TRM-6 cells (human fetal islet line), insulin promoter-eGFP reporter, imaging; reporter expression induced with tamoxifen; inhibition, % at 2 µM; 130,000 tested, 0.9% active;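 active means inhibition above the mean plus 3 SD, with well images judged a real hit on visual review, cut at about 60% in these data, passing the limit was not always enough; inconclusive means inhibition over the cutoff but images rejected on review; inactive means inhibition not above the cutoff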
PKD1 kinase inh – inhibitors of human PKD1 kinase | inhibition, %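 (about 10 µM by stock and volumes)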 | Q15139 | PKD1 kinase fluorescence polarization assay | AID 797 | 200,000 tested, 0.056% active;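 active means inhibition of 50% or more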;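 further: controls were vehicle for no effect and a reference inhibitor for full effect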
Target sequence (Q15139 whole entry, looked up): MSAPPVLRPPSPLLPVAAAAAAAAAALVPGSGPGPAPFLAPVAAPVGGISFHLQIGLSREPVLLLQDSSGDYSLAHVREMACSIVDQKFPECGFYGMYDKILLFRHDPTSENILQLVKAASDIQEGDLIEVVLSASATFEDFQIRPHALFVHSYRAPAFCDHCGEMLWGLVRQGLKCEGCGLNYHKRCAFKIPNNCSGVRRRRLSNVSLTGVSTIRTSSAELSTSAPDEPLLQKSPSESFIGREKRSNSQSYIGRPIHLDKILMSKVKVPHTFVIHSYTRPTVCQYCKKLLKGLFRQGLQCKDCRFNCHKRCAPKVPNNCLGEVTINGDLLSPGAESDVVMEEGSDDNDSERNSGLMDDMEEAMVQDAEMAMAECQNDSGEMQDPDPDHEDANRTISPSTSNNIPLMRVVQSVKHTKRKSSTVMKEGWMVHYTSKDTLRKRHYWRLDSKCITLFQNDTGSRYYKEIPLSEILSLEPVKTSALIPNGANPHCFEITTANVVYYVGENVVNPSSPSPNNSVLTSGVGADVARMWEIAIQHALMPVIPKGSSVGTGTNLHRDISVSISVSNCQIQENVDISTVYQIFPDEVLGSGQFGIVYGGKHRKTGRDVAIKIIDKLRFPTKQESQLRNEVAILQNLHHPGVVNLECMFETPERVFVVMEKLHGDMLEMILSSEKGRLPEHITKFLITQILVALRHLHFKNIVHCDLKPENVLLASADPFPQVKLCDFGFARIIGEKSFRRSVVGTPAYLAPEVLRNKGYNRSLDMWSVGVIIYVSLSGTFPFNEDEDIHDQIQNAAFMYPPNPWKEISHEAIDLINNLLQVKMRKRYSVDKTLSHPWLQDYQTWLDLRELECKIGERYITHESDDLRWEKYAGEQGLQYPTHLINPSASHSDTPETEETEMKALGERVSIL
RGS16-Gao HTS – modulates binding between human RGS16 and Galphao | O15492+P09471 | bead-based flow cytometry RGS16-Galphao binding, fluorescence; actives lie on both sides | binding response (% of control), % at 10 µM | 220,000 tested, 0.38% active;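 active means below 25% or above 175%, edge rows of some plates excepted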;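 further: Galphao activated by GDP with aluminum fluoride before binding; 100% = wells without compound and 0% = beads without RGS; some results beyond the cut were filed as inactive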
HSV augment – HSV replication enhancement; HSV replication augmentation in cells, fold increase; maximum fold increase; 220,000 tested, 0.005% active;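 active means peak rise of 1.5-fold or more in the series; inconclusive means self-fluorescent or not available for retest; tested in PC3 cells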;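 further: first round at 10 µM; read as green reporter fluorescence; hits show the peak of a series up to 25 µM; 1 = signal of infected wells without compound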
GALR2 ag – agonists of human galanin receptor 2 (GALR2); O43603; GALR2-expressing cells, agonist activation read-out; activation, %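 (tested at 5 µM)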; 140,000 tested, 0.48% active; AID 803;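 active means above mean plus 3 SD of all compounds, about 5% in these data, not always enough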;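 further: 0% = vehicle buffer wells and 100% = reference agonist at full effect; tested in CHO reporter cells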
Insulin prom inh cell count – recorded beside Insulin prom inh, whose call it bears; normalized cell count, %; measured here: cell count, toxicity; reference of the scale not given here;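 cells exposed to compound for 48 h; stained nuclei by imaging scaled within each plate; lower means fewer cells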
HSV augment primary fold – also measured in HSV augment; calls as there; fold increase; compound at 10 µM; measured here: primary screen fold increase 10 uM; tested in PC3 cells;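 GFP signal in the first replicate; 1 = infected wells without compound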
An asterisk follows results filed as active; i = inactive; ? = inconclusive; / = no result given. The order is random; 1.3% or so of the library scored in one or more.

SMILES	Insulin prom inh	Insulin prom inh cell count	PKD1 kinase inh	RGS16-Gao HTS	HSV augment	HSV augment primary fold	GALR2 ag
O=C(NCCC1=CCCCC1)c1ccc(F)c(S(=O)(=O)N2CCOCC2)c1	/	/	-2	102	i	0.8	-1.3
CCN(CC)c1ncnc2sc(C(=O)N3CCN(c4ccccc4)CC3)c(C)c12	/	/	1	105	i	0.93	-0.3
CC(=O)c1ccc(OCC(=O)NCc2ccc(F)cc2)cc1	29	124	3	96	i	1	/
COc1cc(/C=C/c2ccc3c(Br)cc(Br)c(O)c3n2)ccc1O	/	/	/	101	?	/	/
CCn1c(SCC(=O)NCC2CCCO2)nnc1-c1ccc(Cl)cc1 (centres undefined)	-25	100	4	97	i	0.93	/
COc1ccc2ccc(=O)oc2c1CC(O)C(C)(C)O (centres undefined)	/	/	/	119	i	0.69	/
Cc1ccc(S(=O)(=O)N2CCN(C(=O)C3Cc4ccccc4CN3C(=O)c3ccco3)CC2)cc1 (centres undefined)	28	133	-3	89	i	0.98	-0.5
CC(Cc1ccccc1)C(=O)NCCO (centres undefined)	-38	82	-9	101	i	0.61	-4.1
COc1ccc([N+](=O)[O-])cc1NC(=O)CSc1nc(C)cc(C)n1	22	69	-10	75	i	0.97	-0.7
CCCCNC(=O)C(c1ccc(OCC(=O)OC)c(C(=O)OC)c1)N(CCc1c[nH]c2ccccc12)C(=O)CCCCCN1C(=O)NC(c2ccc(-c3ccccc3)cc2)C(C(=O)OCc2ccccc2)=C1C (centres undefined)	/	/	/	100	i	0.56	/
O=C(NCc1ccc(Cl)cc1)C(=O)NCC1OCCN1C(=O)c1ccc(Cl)cc1 (centres undefined)	69*	71*	-2	102	i	0.71	/
CCN(CC(=O)Nc1ccc(OC(F)F)cc1)C1CCCCC1	7	116	3	99	i	0.92	/
Cc1ccc2nc(-c3ccccc3)c(CN3CCN(c4ccccc4F)CC3)n2c1	11	98	-6	79	i	0.87	/
O=C(Nc1cccnc1)c1cc2cc(Br)ccc2oc1=O	/	/	2	96	i	1	/
COC(=O)[C@H]1C[C@@H]1[C@H](NC(=O)OCc1ccccc1)c1ccccc1	0	113	-11	103	i	0.76	-2.3
O=C(Nc1ccon1)c1ccccc1Cl	56	126	0	101	i	1	-2.2
COc1ccc(NC(=O)c2cccc(Cn3cc(Br)cn3)c2)cn1	33	97	-6	100	i	0.79	-1.3
COC(=O)/C(C#N)=C/c1c(Oc2cccc(C)c2)nc2ccccn2c1=O	/	/	/	100	i	0.86	/
C[C@]12CCC(=O)C=C1CC[C@@H]1[C@@H]2[C@@H](O)C[C@@]2(C)[C@H]1CC[C@]2(O)C(=O)CO	-50	100	-11	104	i	0.89	0.9
CCOCCCNC(=O)c1ccc2c(c1)N=C(CC)c1cc(Br)ccc1S2	-273	8	-1	104	i	0.7	/
CCNC(=S)N/N=C(\C)c1cccc([N+](=O)[O-])c1	-70	57	-4	108	i	0.89	-0.6
COc1ccc(/C=N/NC(=O)C(=O)N2CCCC2)cc1OC	7	116	-1	60	i	0.96	0.2
CCOC(=O)c1c(NC(=O)CSc2nnnn2C)sc(CC)c1C	31	137	-3	101	i	0.88	-1.9
CC(=O)c1c(C)[nH]c(C(=O)OCC(=O)Nc2cccc(S(=O)(=O)N3CCCC3)c2)c1C	/	/	6	102	i	1.1	0.4
CCOC(=O)c1c(-c2ccccc2)csc1NC(=O)C1CCCO1 (centres undefined)	/	/	6	90	i	0.91	-0.9
Cc1oc(-c2cc(Cl)cc(Cl)c2)cc1C(=O)NCCc1ccccc1	13	112	-8	102	i	0.88	-1.3
Cc1ccc(C(=O)N(CN2CCCC2=O)c2ccccc2)cc1	27	66	-5	82	i	1	/
COC(=O)c1[nH]c2ccc(Cl)cc2c1NC(=O)CCN1CCOCC1	/	/	-1	103	/	/	-1.7
C/C(=N\NC(=O)CCc1ccc(S(=O)(=O)N2CCOCC2)cc1)c1ccccc1Cl	/	/	-4	99	i	1	/
CC(=O)c1ccc(N2CCN(C(=O)/C=C/c3ccc4ccccc4n3)CC2)cc1	/	/	5	100	i	0.77	/

Compound profiles, from the list above.
COc1ccc([N+](=O)[O-])cc1NC(=O)CSc1nc(C)cc(C)n1 as listed: Insulin prom inh = 22; Insulin prom inh cell count = 69; PKD1 kinase inh = -10; RGS16-Gao HTS = 75; HSV augment = i; HSV augment primary fold = 0.97; GALR2 ag = -0.7
COc1ccc(NC(=O)c2cccc(Cn3cc(Br)cn3)c2)cn1 as listed: Insulin prom inh = 33; Insulin prom inh cell count = 97; PKD1 kinase inh = -6; RGS16-Gao HTS = 100; HSV augment = i; HSV augment primary fold = 0.79; GALR2 ag = -1.3

Continued.
SMILES	Insulin prom inh	Insulin prom inh cell count	PKD1 kinase inh	RGS16-Gao HTS	HSV augment	HSV augment primary fold	GALR2 ag
O=C(CC1(O)C(=O)Nc2ccccc21)c1ccc(-n2cnnn2)cc1 (centres undefined)	-17	78	-8	67	i	1	/
O=C1c2ccccc2C(Nc2ccc3c(c2)OCO3)N1Cc1ccc2c(c1)OCO2 (centres undefined)	/	/	-12	98	i	1.1	-1.0
NC(=S)Nc1cccc2[nH]ccc12	/	/	2	100	i	0.9	/
CCC(C)(C)NC(=O)CN(Cc1ccc2c(c1)OCO2)C(=O)CCC(=O)Nc1ccccn1	-206	58	-16	102	i	0.97	-0.9
COCCNCC(=O)Nc1ccccc1Sc1ccccc1	/	/	11	101	i	1.1	-0.9
Cc1cc(C)cc(NC(=S)/C(=C(\[O-])c2ccc(Cl)cc2Cl)[n+]2ccc(C(C)(C)C)cc2)c1	/	/	/	83	i	0.95	/
COc1cc(OC)c(C2=NOC(C(=O)Nc3cc(C)nn3-c3ccccc3)C2)cc1Cl (centres undefined)	0	125	-16	102	i	0.84	-0.6
CC(=O)C1C(=O)c2c(cccc2[N+](=O)[O-])C1=Nc1ccc(S(N)(=O)=O)cc1 (centres undefined)	/	/	-1	107	i	0.84	/
COCCNC(=O)c1ccc(C(=O)NCCOC)s1	50	99	1	/	i	1.1	-1.7
CCC(C(=O)NCc1ccco1)N(C(=O)CNS(=O)(=O)c1ccccc1)c1ccc(OC)cc1 (centres undefined)	0	96	2	111	i	1	-0.7
COc1ccc(CCNC(=S)NC(=O)c2ccccc2)cc1OC	-55	61	0	110	i	0.96	-2.2
Cc1cc(Oc2ncccc2[N+](=O)[O-])c2cc(Cl)ccc2n1	/	/	/	100	i	1	/
O=C(CN1C(=O)NC2(CCCCCC2)C1=O)NCc1ccco1	-23	105	1	76	i	0.95	-1.1
Cc1ccc(C(C2C(=O)CC(C)(C)CC2=O)C2C(=O)CC(C)(C)CC2=O)s1	33	112	1	95	i	0.97	-2.6
Cn1c(SCc2ccccc2F)nnc1-c1ccccn1	-12	120	3	102	i	1.1	/
O=C(Cc1cccs1)N1CCCC(c2nc3c(nnn3Cc3cccc(Cl)c3)c(=O)[nH]2)C1 (centres undefined)	-9	99	-11	102	i	0.97	-0.2
CSCCC(NC(=O)c1ccccc1)C(=O)O (centres undefined)	0	72	-6	113	i	1	/
CC(C)c1ccc(NC(=O)COC(=O)[C@H](CCC(N)=O)NC(=O)c2ccc(F)cc2)cc1	/	/	-5	102	/	/	0.4
CCOC(=O)Cn1c(=O)oc2cc(S(=O)(=O)NC(C)(C)CC)ccc21	/	/	/	104	i	0.97	/
C/C(=N\N1C(=O)c2ccccc2NC1c1ccco1)c1ccccc1O (centres undefined)	42	63	6	87	i	0.65	/
CC1=CC(=C(C#N)C#N)C=C(C)N1CCN1CCN(C(=O)Nc2cccc(Cl)c2)CC1	/	/	-1	109	i	1.1	-1.1
COc1ccccc1-n1c(SCC(=O)Nc2cccc(C)c2)nc2c(c1=O)SCC2	/	/	1	93	i	0.53	-2.0
O=C1C(Cl)=C(NCC2CCCO2)C(=O)N1Cc1ccccc1 (centres undefined)	/	/	3	101	i	1	-2.3
CCn1c(SCC(=O)N/N=C/c2cccs2)nc2ccccc21	-23	103	-8	99	i	0.79	-0.9
CCc1ccc(NC(=O)C(=O)NCCN2CCN(S(C)(=O)=O)CC2)cc1	/	/	-13	105	i	0.99	/
Cc1ccc(C(=O)CCC(=O)N2CCC(C(N)=O)CC2)cc1	0	113	5	108	i	0.91	/
CCN(CC)c1nc2ccccc2nc1-n1nc(C)cc1C	7	69	-3	100	i	1.1	-0.8
Cc1cc(CSc2ccccc2)ccc1NC(=O)c1cccc([N+](=O)[O-])c1	13	92	1	100	i	1	-2.7
COc1ccccc1C(=O)NCc1ccccc1	-14	140	-1	105	i	1.1	-0.8
Cc1ccccc1OCc1nnc(SCC(=O)Nc2c(C)n(C)n(-c3ccccc3)c2=O)n1-c1ccccc1	-4	84	-11	106	i	0.95	-1.1
Cc1c(C(=O)NC2CCCc3ccccc32)oc2ccccc12 (centres undefined)	25	117	-12	106	/	/	-1.9
Nc1nc(-c2ccc(-n3nncc3-c3ccco3)cc2)cs1	/	/	/	102	i	0.86	/
C=CCc1ccc(OCC(O)CN2CCC(Cc3ccccc3)CC2)c(OC)c1 (centres undefined)	3	113	-6	105	i	0.95	-1.4
COc1ccc(-c2ccc(C)cc2)cc1[C@H]1[C@@H]2C=CCC[C@@]2(C)C(=O)N1Cc1ccccc1	/	/	/	98	i	0.68	/
CC(C)(C)NC(=O)C(c1ccco1)N(C(=O)Cn1nnc(-c2ccc(F)cc2)n1)c1ccccc1 (centres undefined)	/	/	-17	/	/	/	-0.6
NC12CCc3c(no[n+]3[O-])C1(O)CC(c1ccccc1)=[N+]2[O-] (centres undefined)	/	/	-2	103	i	0.89	-0.4
Cc1ccc(Cn2nnc3c(=O)[nH]c(C4CCN(S(=O)(=O)c5cc(C)ccc5C)CC4)nc32)cc1	45	172	10	103	i	1.1	0.7
Nc1nonc1-c1nc2ccccc2n1Cc1ccccc1	-13	146	-2	105	i	0.77	-1.1
CCN(CC)c1ccc(NC(=O)C2=CCN(S(=O)(=O)c3ccc(F)cc3)CC2)c(C)c1	-95	110	3	105	/	/	0.1
O=Cc1cn(-c2ccccc2)nc1-c1ccncc1	/	/	-1	97	i	0.85	/
O=C(CCNS(=O)(=O)c1cccs1)NC1CCN(Cc2ccccc2)CC1	/	/	-4	99	i	0.95	/
Cc1ccc(Cl)cc1N1CCN(C(=O)C2CCN(S(=O)(=O)c3cnc[nH]3)CC2)CC1	/	/	-28	100	i	1.1	0.0
CN1CCN(CC#CCC2(O)c3ccccc3-c3ccccc32)CC1	/	/	0	104	i	0.94	/
COc1ccc(N2CCN(C(C)C(=O)Nc3nnc(C)s3)CC2)cc1 (centres undefined)	/	/	-6	107	i	0.93	/
COC(=O)c1ccc(NC(=O)c2cn(-c3cccc(C)n3)cn2)cc1	27	219	-2	100	i	0.94	-1.0
C=CCn1c(Cc2cccs2)nnc1SCC(=O)Nc1cc(OC)cc(OC)c1	-83	124	8	105	i	1.1	-0.4
NS(=O)(=O)c1ccc(Cc2ncc(C(F)(F)F)cc2Cl)s1	0	80	-2	100	/	/	-1.6
COc1ccccc1CNC(=O)[C@@H]1CCCN1C(=O)C1CCN(S(=O)(=O)c2ccc(C)cc2)CC1	-42	123	2	103	i	0.95	-0.3
c1ccc(COc2ccc(OCCOCCn3cncn3)cc2)cc1	49	146	-3	105	i	0.9	-2.6
O=C(NN=C1CCC(c2ccccc2)CC1)c1cc2c(s1)CCCC2 (centres undefined)	9	40	-6	101	i	0.89	-0.8
Cc1cc(C)nc(/N=C(\N)Nc2ccc(C(C)C)cc2)n1	/	/	/	100	i	0.81	/
CN(C)/C=C(/C(=O)c1ccc(Cl)cc1Cl)S(=O)(=O)c1ccc(Cl)cc1	16	130	5	93	i	1.2	-2.4
CCN1C(=O)/C(=C\c2nc3ccccc3c(=O)n2CC)c2ccccc21	/	/	-11	104	i	0.86	/
O=C(Cn1cc(C(=O)c2ccco2)c2ccccc21)Nc1ccccc1F	/	/	-12	100	i	0.89	/
Cc1ccc(Oc2ncc(CN3CCOCC3)s2)cc1	-32	92	-10	115	i	0.99	-0.2
Cc1nnc(Nc2ccc(Cl)cc2)s1	/	/	/	103	i	0.86	/
COCCNC(=S)N/N=C(\C)c1ccccc1O	-331	34	-14	103	i	0.7	-1.4
COc1ccc(OCCN2C(=O)NC3(CCc4ccccc4C3)C2=O)cc1 (centres undefined)	/	/	-4	103	i	1	-0.7
